Source: PubChem (National Center for Advancing Translational Sciences (NCATS))
VDR inh – inhibitors of human vitamin D receptor; Potency, µM, without a hit: max response, negative = inhibition, hits mostly inhibitors; P11473; actives 0.93% (n = 400,000); VDR-SRC2-3 peptide fluorescence polarization, 2 h; active = well fitted inhibition curve with a large enough effect; inconclusive = small, poorly fitted or top-dose-only effect, or another doubt; inactive = no such curve, though single readings can be large or run the other way; also: series mostly up to about 120 µM
Target sequence (P11473 whole entry, looked up): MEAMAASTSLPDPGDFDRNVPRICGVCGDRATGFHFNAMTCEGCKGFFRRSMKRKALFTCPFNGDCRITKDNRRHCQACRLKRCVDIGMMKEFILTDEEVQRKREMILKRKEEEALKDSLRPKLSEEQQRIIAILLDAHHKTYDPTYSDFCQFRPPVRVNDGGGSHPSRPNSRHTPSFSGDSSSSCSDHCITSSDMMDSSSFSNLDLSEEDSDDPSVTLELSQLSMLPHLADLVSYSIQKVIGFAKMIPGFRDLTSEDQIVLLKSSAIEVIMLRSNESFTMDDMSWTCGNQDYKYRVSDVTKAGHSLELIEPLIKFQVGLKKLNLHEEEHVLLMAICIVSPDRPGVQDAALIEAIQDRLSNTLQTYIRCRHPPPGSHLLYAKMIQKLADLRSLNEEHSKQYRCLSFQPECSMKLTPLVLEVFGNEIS
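Fluorescence polarization assay of small-molecule disruption of VDR binding to coregulator peptide SRC2-3. Compounds and controls pin-transferred, then read after 2 h incubation at ambient room temperature.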
The depositor's hits bear a star; u = inconclusive; & = joins results of further samples; [ ] = dose if it differs, or a comment. % is scaled to controls: 0 for no effect and ±100 for the full control effect; potency is read from the fitted curve at half-maximal effect. This is a subset; count on the stated rates, not on these rows.

compound | VDR inh
CCNC(=O)c1cccc(NC(=O)CC2SC(N3CCCCC3)=NC2=O)c1 (configuration not stated) | 2%
Cc1c(C(=O)OC(C)C)[nH]c2c1C(=O)CCC2 | -13%
CCCCSCc1cc(C(=O)O)oc1C(C)(C)C | -12%
COCc1cc(C)nc(SCC(=O)c2ccc(O)c(O)c2)c1C#N | 3%
CCOC(=O)C1=C(C)N=c2s/c(=C\c3ccc(C(=O)O)cc3)c(=O)n2C1c1ccc(F)cc1 (configuration not stated) | u
Cc1ccc(CSc2ncc(Cl)c(C(=O)Nc3nc4ccc(C)cc4s3)n2)cc1 | -1%
Cc1ccc2cccc(OC(=O)/C=C\c3ccccc3)c2n1 | 13%
CCc1cccc(CC)c1NC(=O)c1cc(CN2C(=O)c3ccccc3C2=O)ccc1OC | 7%

Continued:
compound | VDR inh
O=C(N=C1N=C2C=CC=CN2Cc2ccccc21)c1ccc(S(=O)(=O)N2CCOCC2)cc1 | -12%
CCN(CC)CCNC(=O)COc1ccc(OC)cc1 | -3%&-8%&1%&-5%
CC(C)Oc1ccc(CNC(=S)Nc2ccccc2)cc1Cl | 6%
Cc1ccccc1NS(=O)(=O)c1ccc(C)c(C(N)=O)c1 | 19%
Cc1ccccc1NC(=O)C1CCCN1S(=O)(=O)c1ccccc1C(F)(F)F (configuration not stated) | -18%
COc1ccc(CCn2c(N3CCOCC3)nc3c2c(=O)[nH]c(=O)n3C)cc1 | -15%
CCOc1ccccc1NC(=O)CN(C)S(=O)(=O)c1cnc[nH]1 | -9%
Cc1cc(C)c2nc(NNC(=O)c3ccc(S(=O)(=O)N4CCCC(C)C4)cc3)sc2c1 (configuration not stated) | 0%

Structural class: those above containing a COOH group.
compound | VDR inh
CCCCSCc1cc(C(=O)O)oc1C(C)(C)C | -12%
CCOC(=O)C1=C(C)N=c2s/c(=C\c3ccc(C(=O)O)cc3)c(=O)n2C1c1ccc(F)cc1 (configuration not stated) | u

Further compounds.
compound | VDR inh
CCOC(=O)c1cnc(SCC(=O)c2ccc(C)cc2)nc1N | 11%
CC(C)CN(CC(C)C)S(=O)(=O)N1CCC(C(=O)NCc2ccc(F)cc2)CC1 | 0%
CN(CC(=O)Nc1ccc(Cl)cc1)C(=O)COc1ncnc2ccccc12 | -21%
Cc1ccc(S(=O)(=O)N2CCOCC2)cc1NC(=O)CN1CCC(Cc2ccccc2)CC1 | 35%[activator]
Cc1ccc(C(=O)NCC(=O)NCC(=O)OCC(=O)c2cccs2)cc1 | -3%
Cc1ccccc1C(=O)Nc1cccc(NC(=O)c2ccc(F)cc2)c1 | 11%
CCCC(=O)Nc1nc2ccc(NC(=O)c3cccnc3)cc2s1 | -13%
O=C(CN1CCN(S(=O)(=O)c2ccc3c(c2)OCCO3)CC1)Nc1cccc(F)c1 | 15%

Next compounds follow:
compound | VDR inh
CCCN(CCC)C1CC(=O)N(Cc2ccccc2)C1=O (configuration not stated) | -2%
COc1ccc(S(=O)(=O)N2CCN(C(=O)COc3ccc4c(C)cc(=O)oc4c3)CC2)cc1 | -2%
O=C(CNC(=O)c1ccccc1F)OCc1cc(=O)n2ccsc2n1 | 12%
CCc1noc(C)c1C(=O)NNC(=O)c1ccc(Br)cc1 | -15%
O=C(COc1ccccc1)N1CCN(C(=O)c2cccc(F)c2)CC1 | 1%
Cc1ccc(-c2cc(C(=O)N3CCc4ccccc4C3)no2)cc1 | 9%
CCCC(NS(=O)(=O)c1ccc(-c2ccc(=O)[nH]n2)s1)c1cccs1 (configuration not stated) | 0%
CN(C)c1ccc(C(CNS(=O)(=O)c2ccc(Cl)cc2)N2CCCC2)cc1 (configuration not stated) | 6%

Continued:
compound | VDR inh
O=C(NCCSCc1ccccc1)c1ccccc1 | 6%
NNC(=O)/C(=C\c1ccc(Br)cc1)NC(=O)c1cccs1 | -2%
COc1ccc(N(C(=O)c2ccco2)C(C(=O)NC2CCCCC2)c2ccccc2)cc1 (configuration not stated) | 11%
Cc1ccc2cccc(OCc3nnc(SCC(=O)O)n3C)c2n1 | -14%
O=C(NCc1cccnc1)[C@@H]1CC=C[C@@H]2CCN(Cc3ccc(Cl)c(Cl)c3)C(=O)[C@@H]21 | -10%
CNS(=O)(=O)c1cccc(C(=O)OCC(=O)Nc2ccc(Cl)cn2)c1 | 1%
CC(=O)Nc1ccc(S(=O)(=O)Nc2ccc(Cl)cn2)cc1 | -6%
Cc1ccc(-c2cc(C(F)(F)F)n3ncc(C(=O)O)c3n2)cc1 | -22%

Of the compounds above, 8 contain fluorine:
compound | VDR inh
CCOC(=O)C1=C(C)N=c2s/c(=C\c3ccc(C(=O)O)cc3)c(=O)n2C1c1ccc(F)cc1 (configuration not stated) | u
Cc1ccccc1NC(=O)C1CCCN1S(=O)(=O)c1ccccc1C(F)(F)F (configuration not stated) | -18%
CC(C)CN(CC(C)C)S(=O)(=O)N1CCC(C(=O)NCc2ccc(F)cc2)CC1 | 0%
Cc1ccccc1C(=O)Nc1cccc(NC(=O)c2ccc(F)cc2)c1 | 11%
O=C(CN1CCN(S(=O)(=O)c2ccc3c(c2)OCCO3)CC1)Nc1cccc(F)c1 | 15%
O=C(CNC(=O)c1ccccc1F)OCc1cc(=O)n2ccsc2n1 | 12%
O=C(COc1ccccc1)N1CCN(C(=O)c2cccc(F)c2)CC1 | 1%
Cc1ccc(-c2cc(C(F)(F)F)n3ncc(C(=O)O)c3n2)cc1 | -22%

New compounds follow
compound | VDR inh
CC(=O)Oc1ccc(C(=O)COC(=O)CNC(=O)COc2ccccc2C)cc1 | -2%
CSc1cc(SC)ncn1 | -1%
CCOC(=O)c1c(C)oc2nc(C)nc(NCC3CCN(Cc4ccc(Cl)cc4)CC3)c12 | 13%
Cn1c(=N)n(CC(O)c2cccs2)c2ccccc21 (configuration not stated) | 4%
C[C@@H]1CC=C[C@H]2[C@H]1C(=O)N(Cc1ccccc1)[C@H]2c1cccc([N+](=O)[O-])c1 | -11%
O=C1NC(NS(=O)(=O)c2ccc(Cl)cc2)(C(F)(F)F)C(=O)N1c1ccccc1 (configuration not stated) | 3%
CS(=O)(=O)c1ccc(-c2cccc(NC(=O)COc3ccc(Cl)cc3)c2)nn1 | 4%
CC1(C)CC(=O)C(C=NCCN2CCN(C(=O)CC3CCCC3)CC2)=C(O)C1 | -7%

Additional results:
structure	VDR inh
NC(=O)C1CC(=O)N(c2ccc(OCC(=O)Nc3ccccc3F)cc2)C1 (configuration not stated)	-7%
Cc1ccc(S(=O)(=O)N2CCN(C(=O)N3CCOCC3)CC2)c(C)c1	-14%
O=C(NCc1ccco1)C1CCN(c2ccc(N3CCOCC3)nn2)CC1	-5%
Cc1nn2c(=O)cc(COC(=O)c3ccc(C(C)(C)C)cc3)nc2s1	7%
COc1ccc(CCNc2oc(-c3ccc(C)cc3)nc2C#N)cc1OC	-2%
CN(CC(=O)NCc1cccs1)S(=O)(=O)c1cccc2cccnc12	-23%
COc1ccc(C2C(C(=O)c3cccs3)=C(O)C(=O)N2CCN2CCOCC2)c(OC)c1 (configuration not stated)	-6%
N#Cc1ccccc1NC(=O)Nc1cccc(Cl)c1	-1%

The list continues:
structure	VDR inh
COc1ccc(CNCCc2ccccc2)cc1OCC(N)=O	1%
O=C(CNC(=O)c1ccccc1F)OCC(=O)N1CCCCC1	-23%
Oc1ccccc1C1C=C(c2ccc3c(c2)OCO3)NC(c2ccc(F)c(Br)c2)N1 (configuration not stated)	u
COc1ccc(N2C(=O)C(CC(=O)Nc3ccc(Cl)cc3)N(NC(=O)c3cccc(F)c3)C2=S)cc1 (configuration not stated)	-17%
CCOC(=O)C1=C(C)OC(N)=C(C#N)C1C1CCCCC1 (configuration not stated)	10%
C#Cc1cccc(NC(=O)c2ccc(Cl)cc2Cl)c1	-24%
CC(NC(=O)Nc1cccc([N+](=O)[O-])c1)(C(F)(F)F)C(F)(F)F	5%
Cc1nc2c(O)c3c(c(O)c2nc1C)C1C=CC3CC1	0%

More results follow:
structure	VDR inh
CN(C)c1nc(NCc2ccccc2)nc(SCC(=O)Nc2ccccc2Cl)n1	-15%
Cc1cc(C)c(Cn2c(=O)n(CCCCCC(=O)NCc3ccc4c(c3)OCO4)c(=O)c3sccc32)c(C)c1	-15%
CCCCN(C(=O)CSc1nc2ccccc2s1)c1c(N)n(CCCC)c(=O)[nH]c1=O	u
COc1ccc(NC(=O)c2cc3c(=O)n(Cc4cccs4)ccc3nc2C)c(OC)c1	8%
CC(=O)Nc1ccc2c(c1)C(=O)N(c1ccc(C)cc1)C2=O	3%
CS(=O)(=O)CCC(C(=O)N1CCOCC1)N1C(=O)c2cc(Cl)c(Cl)cc2C1=O (configuration not stated)	6%
Cc1ccc(NC(=O)C(=O)NN=C2CCCC2)cc1C	-5%
COc1ccc(-c2cc(=O)c3c(C)cc(O)cc3o2)cc1	-10%

Next part
structure	VDR inh
COc1ccccc1-c1nc2n(n1)C(c1ccc(Cl)cc1)C(C(N)=O)=C(C)N2 (configuration not stated)	-2%
Cc1ccc(NC(=O)CSc2ncnc3ccccc23)cc1S(=O)(=O)N1CCCCC1	-19%
N#CCC(=O)N1CCN(C=O)CC1	3%
O=C(NN(CC(O)COc1ccccc1)CC(O)COc1ccccc1)c1ccccc1 (configuration not stated)	10%
COc1ccc(CCN2CC(C(=O)NCc3nc(C)c(C)s3)CCC2=O)cc1 (configuration not stated)	10%
COC(=O)c1c(C)sc(-c2c(-c3ccc4c(c3)OCCO4)[nH]c3[nH]c(=O)[nH]c(=O)c23)c1O	1%
CCCc1cc(N2CCCC(C(=O)Nc3c(OC)cccc3OC)C2)n2ncnc2n1 (configuration not stated)	32%[activator]
COC/C=C/C1=CC2=CC(=O)C(C)(OC(=O)c3ccco3)C(=O)C2=CO1 (configuration not stated)	u

New compounds follow:
structure	VDR inh
COc1cccc(C(c2sc3nc(C)nn3c2O)N2CCc3ccccc3C2)c1 (configuration not stated)	-22%
COc1ccc(CNc2ccnc(-c3ccccc3Cl)n2)c(OC)c1	-6%
O=C(CN1C(=O)COc2ccc(S(=O)(=O)N3CCCC3)cc21)NCCc1ccc(Cl)cc1	7%
CCCCN(C(=O)c1cc(CC)c(C)s1)c1c(N)n(CC(C)C)c(=O)[nH]c1=O	19%
COc1ccc(/C=C/C(=O)NNc2c(F)c(F)cc(F)c2F)cc1OC	-6%
O=C(O)c1ccccc1-c1ccccc1C(=O)NCc1ccccc1F	15%
c1ccc2c(CSc3ncnc4nc[nH]c34)cccc2c1	4%
OCC(O)C1OCOC(C(O)CO)C1O (configuration not stated)	-23%

Single values from the results shown:
c1ccc2c(CSc3ncnc4nc[nH]c34)cccc2c1 @ VDR inh = 4%
COc1ccc(CNc2ccnc(-c3ccccc3Cl)n2)c(OC)c1 @ VDR inh = -6%
O=C(CN1C(=O)COc2ccc(S(=O)(=O)N3CCCC3)cc21)NCCc1ccc(Cl)cc1 @ VDR inh = 7%
OCC(O)C1OCOC(C(O)CO)C1O (configuration not stated) @ VDR inh = -23%

Remaining list, next part
structure	VDR inh
N/N=C1\CCCc2c1[nH]c1ccc([N+](=O)[O-])cc21	-2%
CCCCN1C(=O)C(=O)NC[C@@H]1C(C)CC (some centres not stated)	-12%
O=C(CCNC(=O)c1ccccc1)NNC(=O)c1ccccc1Br	-13%
Clc1ccccc1-c1cc(NCc2cccnc2)ncn1	6%
O=c1n(-c2ccccc2)c(=O)n2n1CCCC2	-7%
COC(=O)c1cc(S(=O)(=O)NCc2cccc(OC)c2)cn1C	-7%
c1ccc(CCNc2cnccn2)cc1	-7%
O=C(CNC(=O)c1ccc(Cl)cc1)OCCCOC(=O)CNC(=O)c1ccc(Cl)cc1	12%

Following part
structure	VDR inh
Cc1ccc(-n2nc(C(=O)Nc3ccc(Br)cc3C)c(=O)n(C)c2=O)cc1	-1%
c1ccc(C(c2ccccc2)c2noc(CN3CCN(CC4CC4)CC3)n2)cc1	-5%
Fc1ccc2nc(C3CCCCN3Cc3nc(CC4CC4)no3)[nH]c2c1 (configuration not stated)	-10%
CCCOc1cc2c(C#N)c(N3CCCC3)nc(N)c2c(N)n1	u
COc1ccc(CCNC(=O)CSc2nnc3ccc(-c4cccnc4)nn23)cc1OC	-11%
CCc1ccc(NC(=O)CN2CCc3ccccc3C2)cc1	-18%
Cc1ccc(S(=O)(=O)NC2CC(=O)N(c3ccc4c(c3)OCCO4)C2)cc1 (configuration not stated)	u
COC(=O)c1ccc(CSc2nc3ccccc3c(=O)n2-c2ccccc2)o1	-18%

Next part.
structure	VDR inh
Cc1cccc(/C=N/NC(=O)c2cc(-c3cccnc3)nc3ccccc23)c1	7%
O=C(CN1CCCCC1)N/N=C/c1cc2ccccc2nc1Cl	-5%
CC(=O)Nc1ccc(S(=O)(=O)NCCc2c[nH]c3ccc(C)cc23)cc1	9%
COc1cc2c(cc1OC)CN(C(=O)CCOc1ccccc1)CC2	9%
CCOc1ccc(OCc2ccc(C(=O)NCC3CCCO3)o2)cc1 (configuration not stated)	16%
CCN(CC)C(=O)CSc1nnc(-c2cc3ccccc3cc2O)n1CC	13%
COc1ccccc1N(Cc1ccccc1)S(=O)(=O)c1cccc(C(=O)Nc2ccc(C(C)=O)cc2)c1	-1%
CCC(=O)NC(=S)Nc1ccc(NC(=O)COc2ccc(Cl)cc2Cl)cc1	-1%

More entries follow:
structure	VDR inh
C=CCC1(C#N)C(SC)=NC2=C(C(=O)CC(C)(C)C2)C1c1ccc(Br)cc1 (configuration not stated)	3%
CCOC(=O)[C@@H]1[C@H]2COc3ccc(Br)cc3[C@@H]2N2C(=O)N(c3ccc(C)cc3)C(=O)[C@]12C	-29%
NS(=O)(=O)c1cc(C(=O)NNC(=O)c2ccc3c(c2)OCO3)ccc1Cl	-2%
CCOC(=O)c1ccccc1NC(=O)CSc1cc(C)[nH]c(=O)n1	15%
COc1ccc(CNC(=O)C(C)OC(=O)CO/N=C(\C)c2ccc3c(c2)OCO3)cc1 (configuration not stated)	u
CCCc1nc(SCC(=O)Nc2ccccc2)c2c(=O)n(C)c(=O)n(C)c2n1	-5%
CCC1CN(C(=O)N2CCC(C(=O)NCc3cccs3)CC2)c2ccccc2O1 (configuration not stated)	5%
CCCCCCCCCCOC(=O)C[N+](C)(C)CC1CCCCC1O (configuration not stated)	15%
Cc1ccc(CS(=O)(=O)Cc2ccc(C(=O)NCCc3ccc(Cl)cc3)o2)cc1	-7%
